Rango-impB inh: Rango-importin beta binding inhibition. AID 540263. actives 0.031% (n = 340,000). Rango CFP/YFP FRET sensor + importin beta, 45 min. Potency, µM (highest dose often 92.2 µM), inactives show top-dose inhibition of complex formation; active = rising FRET ratio curve, often small or poorly fitted; inconclusive = mostly compound fluorescence or quenching in the first reads; inactive = flat curves in all reads;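 also: potency is read from the fitted curve at half-maximal effect; 0% = DMSO wells and 100% = buffer wells lacking importin beta; nearly all actives have a fitted effect of over 15% in size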
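Inhibition scored from the CFP 486 nm/YFP 530 nm FRET ratio 45 min after adding 0.125 microM importin beta to 50 nM Rango biosensor preincubated 5 min with compound (room temperature, PBS with DTT, Tween-20, BSA). No-importin wells as positive control.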
GLA inh pH 4.5: inhibitors of human alpha-galactosidase A at pH 4.5. purified enzyme, 4-MU-alpha-Gal fluorescence, pH 4.5. P06280. activity change, negative = inhibition, % at 105 µM. AID 1467. 230,000 tested, under 10 active; inconclusive = small, poorly fitted or top-dose-only inhibition, or a rising curve; inactive = flat fitted curve, though single readings scatter; no compound was filed as active;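 also: 0% = full activity with enzyme and -100% = basal without enzyme; dose as in the result columns while the protocol names 77 µM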
Target sequence (P06280 whole entry, looked up): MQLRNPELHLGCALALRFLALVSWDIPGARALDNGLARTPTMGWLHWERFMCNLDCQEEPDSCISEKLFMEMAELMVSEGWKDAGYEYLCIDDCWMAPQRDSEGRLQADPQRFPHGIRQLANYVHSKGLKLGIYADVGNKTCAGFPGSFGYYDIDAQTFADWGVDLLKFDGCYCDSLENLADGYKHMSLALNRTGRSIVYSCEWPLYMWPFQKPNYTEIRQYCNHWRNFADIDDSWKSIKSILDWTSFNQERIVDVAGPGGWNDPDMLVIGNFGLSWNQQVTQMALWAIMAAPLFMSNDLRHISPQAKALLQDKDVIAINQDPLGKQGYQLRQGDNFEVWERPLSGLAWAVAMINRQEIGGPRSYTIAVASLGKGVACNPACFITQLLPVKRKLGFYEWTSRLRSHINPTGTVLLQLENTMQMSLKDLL
miR-21 FLuc: miR-21 reporter, rising signal | HeLa miR-21 FLuc reporter, luciferase, 48 h | Potency, µM (top dose mostly 38.3 µM), inactives show at the highest dose reporter change, positive = more light | 340,000 tested, under 10 active; active = well fitted rising curve with a large enough effect; inconclusive = small, poorly fitted or top-dose-only effect; inactive = no such curve, though single readings can be large or run the other way;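 also: % of control where 0% means no effect; miR-21 action dims this reporter so a rising signal means less miR-21 action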
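Compounds were titrated across several concentrations (up to approximately 40 uM) and incubated 48 hours with HeLa miR-21-FLuc reporter cells (miR-21 target sequence downstream of FLuc, endogenous miR-21). Readout was firefly luciferase luminescence after lytic detection reagent.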
Rango release inh: inhibition of RanGTP-driven Rango-importin beta dissociation. O95149+P62826. Biochemical FRET Rango-importin beta, RanGTP-induced dissociation. Potency, µM (titrated, usually from 46.1 µM), without a hit: at the highest dose activity change, negative = inhibition. actives 0.071% (n = 340,000). AID 540253; active means falling FRET ratio curve, often poorly fitted, with flat reads before Ran was added; inconclusive means other falling curves, or compound fluorescence or quenching; inactive means flat or rising ratio curve;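 also: potency is read from the fitted curve at half-maximal effect; % of control where 0% means no effect; nearly all actives have a fitted effect of over 45% in size; -100% = wells without RanGTP and RCC1; the record marks most hits as doubtful in a second field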
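FRET read at 45 min, room temperature: inhibitors block the CFP/YFP signal rise when RanGTP (0.6 uM Ran, 2 mM GTP, 0.2 uM RCC1) frees Rango (0.1 uM) from importin beta (0.25 uM). Pre-read after 5 min compound exposure flags interference.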
Numbers without * were called inactive; ? = inconclusive; / = not tested or not shown.

SMILES | Rango-impB inh | GLA inh pH 4.5 | miR-21 FLuc | Rango release inh
CSc1cccc(NC(C)C(=O)NCc2ccccc2)c1 (stereo unspecified) | -4.8% | 1 | -1% | 12%
COCCN(C(=O)CSc1nnc2cc(C)c3ccccc3n12)c1c(N)n(Cc2ccccc2)c(=O)[nH]c1=O | -0.4% | 0 | -5% | 18%
Cc1cccc(NC(=O)CN2C(=O)COc3ccc(Cl)cc32)c1 | 0.4% | -12 | -2% | 2%
Cn1ccnc1SCC(=O)Nc1cc(F)ccc1F | 3.8% | / | -13% | 1%
CC(=O)N1CC(C)Sc2ccc(S(=O)(=O)NC3CCCCC3C)cc21 (stereo unspecified) | -1.7% | / | 14% | -22%
O=C(c1ccccc1)N1N=C(c2ccccc2)CC1c1cccs1 (stereo unspecified) | -1.4% | / | -12% | 0%
O=C(CSc1cccc2cccnc12)N1CCCC1 | 3.3% | -7 | 12% | 14%
CN(C)CCN(Cc1ccc(Cl)cc1)c1ccccn1 | 0.6% | 5 | -1% | -1%
Cc1ccc(N2CC(C(=O)Nc3ccc(S(=O)(=O)Nc4ncccn4)cc3)CC2=O)cc1C (stereo unspecified) | -0.6% | / | 6% | -4%
CC(OC(=O)CC1CC2CCC1C2)C(=O)Nc1cccc(S(=O)(=O)N2CCOCC2)c1 (stereo unspecified) | 1.1% | / | / | -14%
Cc1c(N(C(=O)c2ccccn2)C2(C(=O)NC3CCCC3)CCCCC2)c(=O)n(-c2ccccc2)n1C | 1.8% | 2 | -1% | 3%
Cc1ccc(OCC(=O)Nc2c3c(nn2C(C)(C)C)CS(=O)(=O)C3)cc1 | 0.5% | / | -6% | -2%
Cc1ccc(Cn2c(S(=O)(=O)O)nc3ccccc32)cc1 | 4.1% | 5 | -7% | 4%
COc1ccc(NC(=O)c2ccc3snnc3c2)cc1 | -0.9% | 2 | -32% | 7%
CC(C)[C@H](NC(=O)c1ccccc1Cl)C(=O)OCC(=O)NCc1ccc2c(c1)OCO2 | 6.7% | / | / | -23%
CCc1ccc(NC(=O)CCC(=O)c2ccccc2)cc1 | -0.1% | / | -1% | 8%
COc1cc(OC)cc(C(=O)N(Cc2ccco2)c2c(N)n(Cc3ccccc3)c(=O)[nH]c2=O)c1 | -4.9% | / | / | -13%
CCOC(=O)c1c(C)[nH]c(N=Nc2cccc(OC)c2)c1C | -0.4% | -15 | -70% | 0%
NC(=O)c1nsc(C(=O)N(Cc2ccco2)C(C(=O)NCc2ccccc2)c2ccc(O)cc2)c1N (stereo unspecified) | -5.1% | / | 13% | 3%
CCOC(=O)C1CCN(S(=O)(=O)c2c(C)n(C)c(=O)n(C)c2=O)CC1 | -5.5% | 7 | -6% | 18%
O=C(N/N=C/c1cccnc1)c1ccco1 | -1.2% | -6 | -29% | 2%
Cc1cc(-c2ccc(S(=O)(=O)N3CCN(c4cccc(C(F)(F)F)c4)CC3)s2)on1 | 4.1% | / | -1% | -9%
O=C(COc1cc2oc(=O)c3c(c2cc1Cl)CCC3)NCCCN1CCOCC1 | 0.4% | / | 0% | 1%
CN(C)c1ccc(/C=C2/NC(=O)NC2=O)cc1 | ? | -7 | -46% | ?
Cc1ccc(S(=O)(=O)N2CCN(CCOc3cccc(C)c3)CC2)cc1 | -1.3% | / | / | 1%
CN(C)c1nc2ccccc2c(N)c1-c1ccccc1 | -5.1% | -18 | 3% | 1%
CC(=O)N/C(=C\c1cccs1)C(=O)O | -5.0% | 4 | -3% | 6%
Oc1ccc2ccccc2c1C=Nc1ccccc1-c1nc2ccccc2[nH]1 | -7.9% | 6 | -7% | -1%
Cn1c(N=NC(=O)c2ccccc2)c(O)c2ccccc21 | -5.0% | 1 | -14% | 17%
COC(=O)c1[nH]c2ccccc2c1NC(=O)CN1CCCCCC1 | ? | -2 | -10% | 5%
COC(=O)c1ccc(CN2C(=O)NC(CC(C)C)C2=O)cc1 (stereo unspecified) | -0.4% | -2 | -1% | 7%
CCOC(=O)N1CCN(Cc2nc3cc([N+](=O)[O-])ccc3n2C)CC1 | -0.7% | / | 1% | 11%
CC(=O)Nc1ccc(NC(=O)CSc2nnc3ccc(-c4ccc(F)cc4)nn23)cc1 | 4.0% | -2 | -1% | -7%
COc1ccc(CCNC(=O)c2cccc3c2C(=O)N(C2CCCCC2)C3)cc1OC | 0.5% | / | 19% | 12%
Cc1ccc(S(=O)(=O)N2[C@@H](c3ccc(C(C)(C)C)cc3)C(C(=O)O)=CC[C@H]2c2ccc3c(c2)OCO3)cc1 | 1.6% | / | / | -6%
Cc1cccc(NC(=S)NC(=O)c2ccco2)c1C | 0.9% | / | -42% | -17%
O=C(Nc1nnc(Cc2ccc([N+](=O)[O-])cc2)s1)Nc1ccccc1F | -1.6% | -10 | -11% | -1%
Cc1ccc(C)c(C(=O)CSc2nnnn2-c2cccnc2)c1 | -0.2% | 7 | -14% | 0%
CCOc1ccc(-c2cc(NC(=O)Cn3ncc4c3-c3ccccc3OC4)on2)cc1OCC | -2.9% | -5 | 0% | -11%
CCCCn1cnc2c(SCc3ccc(Cl)cc3)nc(N)nc21 | -1.7% | / | / | 22%
O=C(Cc1cccs1)Nc1cccc(C(=O)Nc2ccc(C(=O)O)cc2)c1 | 1.3% | 3 | 0% | -19%
Cc1ccc2nc(Cc3ccc(N)cc3)oc2c1 | 0.2% | -8 | -60% | 1%
CN1CCN(C(=O)CN(C2CCCCC2)S(=O)(=O)c2ccc(Br)cc2)CC1 | 0.1% | / | -5% | 1%
Cc1[nH]c2ccc(F)cc2c1CCN(Cc1ccco1)C(=S)NC(C)(C)C | -0.8% | 1 | -1% | -10%
CCOc1ccc(C(=O)NNC2CC(=O)N(Cc3ccc(Cl)cc3)C2=O)cc1OC (stereo unspecified) | ? | -10 | -6% | -11%
CN(C)c1ccc(C(=O)c2ccccc2C(=O)O)cc1[N+](=O)[O-] | 4.1% | -1 | -3% | 8%
CCC(C)NC(=O)C1(NC(=O)Nc2ccccc2)CCCCC1 (stereo unspecified) | -0.8% | 6 | -1% | -10%
Cc1cc(SCC(=O)N2CCCC2)nc2ccccc12 | 0.7% | 5 | -14% | 18%
Cc1cc(-n2c(C)cc(C(=O)CSc3ccccn3)c2C)no1 | -0.6% | / | / | 5%
CCn1c(SCC(=O)Nc2cc(S(=O)(=O)N3CCOCC3)ccc2OC)nnc1-c1ccncc1 | -2.3% | -25 | -1% | 13%
Cc1ccc(S(=O)(=O)N(C)CC(=O)N2CCCC2)cc1 | -1.4% | -12 | -4% | 1%
COC(=O)c1ccc(C2NC(C(=O)O)CS2)cc1 (stereo unspecified) | 0.7% | -3 | -3% | 0%
CCN(CC)S(=O)(=O)c1cccc(-c2n[nH]c(=S)n2CC(C)C)c1 | 1.5% | ? | -7% | 12%
O=C(Nc1cc([N+](=O)[O-])ccc1O)c1cccc([N+](=O)[O-])c1 | ? | / | -20% | 1%
Cc1c(NC(=O)c2ccc3nsnc3c2)cccc1[N+](=O)[O-] | 0.2% | / | -11% | 1%
CC1CCCN(S(=O)(=O)c2ccc(NC(=O)C3CC(=O)N(C(C)(C)C)C3)cc2)C1 (stereo unspecified) | 2.1% | / | / | -10%
Cn1ccc(C(=O)N/N=C/c2c[nH]c3ccccc23)n1 | 0.0% | / | -40% | 16%
C=CCN(c1ccc(Br)cc1C(=O)OC)S(C)(=O)=O | -2.5% | / | / | -5%
O=C(CSc1nnc2ccccn12)Nc1ncc(Cl)cc1Cl | -1.3% | 5 | -46% | -7%
COc1ccccc1C(=O)NCCC(=O)Nc1cccc(S(=O)(=O)N2CCCC2)c1 | 0.7% | / | / | ?

15 entries from above, with values under each structure.
Fields: Rango-impB inh	GLA inh pH 4.5	miR-21 FLuc	Rango release inh
- CCCCn1cnc2c(SCc3ccc(Cl)cc3)nc(N)nc21
    -1.7%	/	/	22%
- O=C(Cc1cccs1)Nc1cccc(C(=O)Nc2ccc(C(=O)O)cc2)c1
    1.3%	3	0%	-19%
- Cc1ccc2nc(Cc3ccc(N)cc3)oc2c1
    0.2%	-8	-60%	1%
- CN1CCN(C(=O)CN(C2CCCCC2)S(=O)(=O)c2ccc(Br)cc2)CC1
    0.1%	/	-5%	1%
- Cc1[nH]c2ccc(F)cc2c1CCN(Cc1ccco1)C(=S)NC(C)(C)C
    -0.8%	1	-1%	-10%
- CCOc1ccc(C(=O)NNC2CC(=O)N(Cc3ccc(Cl)cc3)C2=O)cc1OC (stereo unspecified)
    ?	-10	-6%	-11%
- CN(C)c1ccc(C(=O)c2ccccc2C(=O)O)cc1[N+](=O)[O-]
    4.1%	-1	-3%	8%
- CCC(C)NC(=O)C1(NC(=O)Nc2ccccc2)CCCCC1 (stereo unspecified)
    -0.8%	6	-1%	-10%
- Cc1cc(SCC(=O)N2CCCC2)nc2ccccc12
    0.7%	5	-14%	18%
- Cc1cc(-n2c(C)cc(C(=O)CSc3ccccn3)c2C)no1
    -0.6%	/	/	5%
- CCn1c(SCC(=O)Nc2cc(S(=O)(=O)N3CCOCC3)ccc2OC)nnc1-c1ccncc1
    -2.3%	-25	-1%	13%
- Cc1ccc(S(=O)(=O)N(C)CC(=O)N2CCCC2)cc1
    -1.4%	-12	-4%	1%
- COC(=O)c1ccc(C2NC(C(=O)O)CS2)cc1 (stereo unspecified)
    0.7%	-3	-3%	0%
- CCN(CC)S(=O)(=O)c1cccc(-c2n[nH]c(=S)n2CC(C)C)c1
    1.5%	?	-7%	12%
- O=C(Nc1cc([N+](=O)[O-])ccc1O)c1cccc([N+](=O)[O-])c1
    ?	/	-20%	1%

(continued)
SMILES | Rango-impB inh | GLA inh pH 4.5 | miR-21 FLuc | Rango release inh
CC(=O)c1ccc(OCC(=O)OCC(=O)Nc2sccc2C(N)=O)cc1 | 0.6% | / | / | -14%
CC(O)(CS(=O)(=O)Cc1cccc(C(F)(F)F)c1)C(=O)Nc1cccc(C(F)(F)F)c1 (stereo unspecified) | 4.3% | -11 | -7% | -12%
COc1cc(C(=O)NCC(c2cccs2)N(C)C)cc(Cl)c1OC(C)C (stereo unspecified) | 0.3% | -8 | 7% | -1%
CCC(C)N(C(=O)Cn1c(Cl)nc2c1c(=O)n(C)c(=O)n2C)C1CCS(=O)(=O)C1 (stereo unspecified) | -0.1% | / | 3% | 43%
COc1cc2c(cc1OC)C(c1ccc(OC)c(OC)c1OC)CC(=O)N2 (stereo unspecified) | -0.9% | / | -13% | -4%
COC(=O)Cc1c(O)ccn(Cc2ccc(OC)c(OC)c2)c1=O | -0.8% | 7 | 0% | -5%
CCOCCCn1c(=NC(C)=O)c(C#N)cc2c(=O)n3ccccc3nc21 | ? | ? | -1% | ?
O=C(COC(=O)c1ccco1)c1ccc(Cl)cc1 | 4.5% | / | 0% | 9%
Cc1cc(=O)[nH]c(SCC(=O)c2ccc3c(c2)NC(=O)CO3)n1 | -0.2% | -10 | -19% | -1%
CNCCC(=O)N1c2ccccc2CCc2ccc(NC(=O)OC)cc21 | 1.6% | / | 2% | -12%
CC(NC(=O)c1cc(S(=O)(=O)N2CCCC2)ccc1Cl)c1ccccn1 (stereo unspecified) | -0.5% | / | / | 15%
Cc1cccc(-n2nc3c(c2NC(=O)c2c(F)cccc2F)CS(=O)(=O)C3)c1C | 1.0% | / | -3% | 11%
COC(=O)c1c(F)c(F)c(N2CCOCC2)c(F)c1F | -5.5% | 3 | -6% | -3%
O=C(NN=Cc1cc(Cl)ccc1[N+](=O)[O-])c1cccc2ccccc12 | 5.3% | / | / | -5%
O=C(O)c1ccccc1NC(=S)NC(=O)c1cccc2ccccc12 | 3.5% | 4 | -1% | 3%

Given in CSV form: part of the list above.
SMILES,Rango-impB inh,GLA inh pH 4.5,miR-21 FLuc,Rango release inh
O=C(COC(=O)c1ccco1)c1ccc(Cl)cc1,4.5%,/,0%,9%
CC(NC(=O)c1cc(S(=O)(=O)N2CCCC2)ccc1Cl)c1ccccn1 (stereo unspecified),-0.5%,/,/,15%
COC(=O)c1c(F)c(F)c(N2CCOCC2)c(F)c1F,-5.5%,3,-6%,-3%
COc1cc(C(=O)NCC(c2cccs2)N(C)C)cc(Cl)c1OC(C)C (stereo unspecified),0.3%,-8,7%,-1%

These rows are one share of the data (hit frequency here may not be typical).
